Screening results as filed in PubChem BioAssay.
H5N1 antiviral = MDCK cell protection from H5N1 avian flu; cytopathic effect, luminescence, 72 h; active compounds read high; no value below 0 was filed and about half of the inactive calls have no number; reference of the scale not given here; inhibition, % at 50 µM; 0.07% of 96,000 active; AID 740, 2007; in the data active = inhibition above about 25%
* hit, by the source's call. The list is partial, so the mix of outcomes need not match the whole.

`CC1CCN(c2nnc(NC(=O)Cn3c(=O)oc4ccccc43)s2)CC1` gave H5N1 antiviral 0.9.
Screening CCC(C)(C)NC(=O)c1cc(C(=O)OC)cc([N+](=O)[O-])c1 returned H5N1 antiviral inactive.
For O=C(C1CCN(S(=O)(=O)c2cccc3cccnc23)CC1)N1CC=C(c2ccccc2)CC1 the results were H5N1 antiviral 1.0.
`Cc1c(C(=O)NCc2ccccc2)oc2ccc(S(=O)(=O)N3CCCC3)cc12` gave H5N1 antiviral inactive.
`CC(NC(=O)NC1CCCCC1)C(c1cccs1)N1CCN(C)CC1` (stereo unspecified) gave H5N1 antiviral inactive.
`Nc1c(S(=O)(=O)c2ccccc2)cnc2c(-c3ccc(F)cc3)cnn12` gave H5N1 antiviral inactive.
`CCN(CC)C(=O)CSc1nc2c(sc(=S)n2Cc2ccco2)c(=O)n1-c1ccccc1` gave H5N1 antiviral 0.3.
For Cn1nnnc1SCC(=O)NC(C)(C)C the results were H5N1 antiviral inactive.
Screening O=C(NCC(F)(F)F)Nc1ncccn1 returned H5N1 antiviral 0.2.
Screening CC(=O)Nc1nnc(CCN2CCCCC2)s1 returned H5N1 antiviral 1.3.
For O=C(COc1ccc2ccccc2c1)Nc1cccc2cccnc12 the results were H5N1 antiviral inactive.
Screening c1ccc2[nH]c(CSc3ncnc4c3oc3ccccc34)nc2c1 returned H5N1 antiviral 0.7.
For Cn1nc(C(F)(F)F)c2cc(NC(=O)OCC(C)(C)C)sc21 the results were H5N1 antiviral 1.2.
`COc1ccc(/C=N/NC(=O)Nc2cccc3nsnc23)c(OC)c1` gave H5N1 antiviral inactive.
`COC(=O)c1c(C)[nH]c(C(=O)CN2CCOCC2)c1C` gave H5N1 antiviral inactive.
Screening COc1ccc(Nc2nc(NCCO)nc(OC)n2)cc1 returned H5N1 antiviral inactive.
CS(=O)(=O)N(CC(N)=O)Cc1ccc(Cl)cc1 was read as H5N1 antiviral 0.2.
CCC1(C)COC2(OC1)C(=O)Nc1ccccc12 (stereo unspecified) was read as H5N1 antiviral 1.8.
For O=C(CCCNC(=O)/C(=C\c1ccccc1F)NC(=O)c1ccccc1)OCc1ccccc1 the results were H5N1 antiviral inactive.
`CN(C)c1ccc(/C=C2/C(=O)N(c3ccc([N+](=O)[O-])cc3)N=C2N2CCOCC2)cc1` gave H5N1 antiviral 0.3.
`O=C1C2CCCN2C(c2cccnc2)N1c1ccc(Cl)c(Cl)c1` (stereo unspecified) gave H5N1 antiviral inactive.
For COc1ccc(-c2[nH]ncc2-c2cnc(C)s2)c(O)c1 the results were H5N1 antiviral 1.4.
For O=C(CSc1nnnn1C1CCCCC1)N1CCCC1 the results were H5N1 antiviral inactive.
Screening Nn1c(SCC(=O)NC(=O)NCc2ccco2)nnc1-c1ccc(OC(F)F)cc1 returned H5N1 antiviral 0.6.

Grouped by structure, the entries above with an NH in an aromatic ring (three)
Screening c1ccc2[nH]c(CSc3ncnc4c3oc3ccccc34)nc2c1 returned H5N1 antiviral 0.7.
`COC(=O)c1c(C)[nH]c(C(=O)CN2CCOCC2)c1C` gave H5N1 antiviral inactive.
For COc1ccc(-c2[nH]ncc2-c2cnc(C)s2)c(O)c1 the results were H5N1 antiviral 1.4.

Continuation.
For N#Cc1nn(-c2ccccc2)nc1N1CCCCC1 the results were H5N1 antiviral inactive.
O=C(NCCN1CCCCCC1)c1ccc(CS(=O)(=O)c2ccc(Br)cc2)o1 was read as H5N1 antiviral inactive.
`Cc1ccc(S(=O)(=O)N2CCCC(C(=O)NCCCN3CCCCC3C)C2)cc1` (stereo unspecified) gave H5N1 antiviral 1.1.
For CCc1c(C)sc(NC(=O)c2cnn3cccnc23)c1C#N the results were H5N1 antiviral 0.9.
CC(C)CNC(=O)c1nc(-c2ccccc2)n(-c2ccccc2)n1 was read as H5N1 antiviral 0.8.
For O=C(Cn1nc(-c2ccc(Cl)cc2)c2ccccc2c1=O)NCC1CCCO1 (stereo unspecified) the results were H5N1 antiviral 0.5.
`COc1ccc2c(C(=O)CN3CC(C)OC(C)C3)c[nH]c2c1` (stereo unspecified) gave H5N1 antiviral 0.8.
For Cc1nnc(SCC(=O)Nc2nc(-c3ccccc3)cs2)n1N the results were H5N1 antiviral inactive.
CCN(CC)c1ccc2cc(-c3nnc(-c4ccncc4)o3)c(=O)oc2c1 was read as H5N1 antiviral 0.4.
Screening CCC(C#CCN1CCCCC1)(CC)OCCC#N returned H5N1 antiviral 0.1.
`O=C(Cn1c(C(=O)N2CCN(C3CCCC3)CC2)cc2sccc21)c1ccccc1` gave H5N1 antiviral inactive.
Screening CC(C)Cc1[nH]c(=O)c(C#N)c2c1CCCC2 returned H5N1 antiviral 2.5.
For O=C(CN1CCCC1)NC1C2CC3CC(C2)CC1C3 (stereo unspecified) the results were H5N1 antiviral 0.1.
`Cn1c(N2CCCC2)nc2c1c(=O)n(Cc1ccc(Cl)cc1)c(=O)n2C` gave H5N1 antiviral 0.6.
For O=C(CN1CCN(S(=O)(=O)c2ccccc2)CC1)Nc1ccc(Cl)c(Cl)c1 the results were H5N1 antiviral 3.0.
O=C1CC(c2ccccc2)CC2=C1CN(C1CCCCC1)CN2 (stereo unspecified) was read as H5N1 antiviral inactive.
`CC(=NCC1CCCO1)c1c(O)n(Cc2ccccc2)c(=O)[nH]c1=O` (stereo unspecified) gave H5N1 antiviral 1.6.
For Cn1cccc1C(=O)NC(=O)CSc1cccc[n+]1[O-] the results were H5N1 antiviral 0.1.
For CC1CCCN(C(=O)c2ccc3nc[nH]c3c2)C1 (stereo unspecified) the results were H5N1 antiviral inactive.
`COc1cc(C)ccc1OCCOc1cc(C)ccc1Cl` gave H5N1 antiviral 1.1.
`NC(=O)C1CCN(c2ccc(C(F)(F)F)cc2[N+](=O)[O-])CC1` gave H5N1 antiviral inactive.
For COc1ccccc1OCc1ccc(C(=O)OCC2CCCO2)o1 (stereo unspecified) the results were H5N1 antiviral inactive.
CC1CCC/C(=C\Nc2ccccc2C(=O)O)C1=O (stereo unspecified) was read as H5N1 antiviral inactive.
CC(C)(C)NC(=O)C(c1ccc(OCC(N)=O)cc1)N(C(=O)c1cccnc1)C1CC1 (stereo unspecified) was read as H5N1 antiviral 0.0.
C/C(=N/OCC(=O)Nc1ccc(C)cc1C)c1cccs1 was read as H5N1 antiviral 0.9.
`CN=Cc1sc2ccccc2c1O` gave H5N1 antiviral 1.4.
For CCOC(=O)c1ccc2nc(C(F)(F)F)[nH]c(=O)c2c1 the results were H5N1 antiviral inactive.
Screening CSc1nc(NC(C)(C)C)nc(Oc2ccc(=O)n(C)n2)n1 returned H5N1 antiviral 1.1.
`COc1ccc(-c2nnc3sc(COc4ccccc4)nn23)cc1` gave H5N1 antiviral inactive.
For Cn1c(SCC(=O)Nc2cccc(F)c2)nnc1-c1cc2ccccc2o1 the results were H5N1 antiviral 0.1.
Cc1ccc(OCc2nc(-c3ccccn3)no2)cc1 was read as H5N1 antiviral inactive.
CC12CN3CCN(CC(C3)C1O)C2 (stereo unspecified) was read as H5N1 antiviral 0.4.
C(=C\c1ccccc1)/CSc1nnc(-c2ccccn2)n1Cc1ccco1 was read as H5N1 antiviral inactive.
Screening COc1ccc(CCNC(=O)Cn2nnc(-c3ccccc3F)n2)cc1OC returned H5N1 antiviral inactive.
`C#CCOC(=O)C(NC(=O)c1ccccc1)=C1CCCCC1` gave H5N1 antiviral 0.7.
CSc1ccc(NC(=O)NCCCN2CCN(c3ccccc3F)CC2)cc1 was read as H5N1 antiviral inactive.
For CC(=O)c1c(NC(=O)C(C)C)nc(C)nc1-c1ccccc1 the results were H5N1 antiviral 1.0.
For O=C(O)c1ccc(-c2ccccc2)[nH]1 the results were H5N1 antiviral 0.1.
Screening Cc1nc2ccccc2c(=O)n1/N=C/c1ccc(O)cc1 returned H5N1 antiviral inactive.
For C=CCNC(=O)C1CC(=O)N(c2ccc(OCC(=O)Nc3ccc(C)cc3)cc2)C1 (stereo unspecified) the results were H5N1 antiviral 0.1.
For O=C(CSCc1ccc(F)cc1)Nc1nc2c(s1)CCCC2 the results were H5N1 antiviral inactive.
CCSc1ccccc1C(=O)N1CCCC1 was read as H5N1 antiviral 0.1.
For O=C(Nc1ccncc1)c1ccccc1F the results were H5N1 antiviral 0.4.
`COc1ccc(OC)c(NC(=O)N[C@@H](Cc2ccccc2)C(=O)O)c1` gave H5N1 antiviral 0.5.
Cc1cc(NC(=O)CCCC(=O)OCC(F)(F)C(F)F)cc(C)c1C(=O)O was read as H5N1 antiviral inactive.
Cc1cccc(Nc2nc(N)nc(CN3CCN(c4ccccc4)CC3)n2)c1 was read as H5N1 antiviral inactive.
For Cn1c(=O)c2c(nc(OCc3cccnc3)n2Cc2ccccc2)n(C)c1=O the results were H5N1 antiviral 3.9.
Screening Oc1ccccc1CNCCCNCc1ccccc1O returned H5N1 antiviral inactive.

Three compounds picked at random from the list so far, as already listed:
For Cn1nnnc1SCC(=O)NC(C)(C)C the results were H5N1 antiviral inactive.
Screening c1ccc2[nH]c(CSc3ncnc4c3oc3ccccc34)nc2c1 returned H5N1 antiviral 0.7.
CCN(CC)c1ccc2cc(-c3nnc(-c4ccncc4)o3)c(=O)oc2c1 was read as H5N1 antiviral 0.4.

The list continues:
Cn1nc(-c2ccc(C(=O)N3CCN(Cc4ccccc4)CC3)cc2)c2ccccc2c1=O was read as H5N1 antiviral 2.6.
For CNC(=O)c1nnn(-c2ccccc2)c1C(=O)NC the results were H5N1 antiviral 0.6.
O=S(=O)(c1cnc[nH]1)N1CCN(c2ccccc2)CC1 was read as H5N1 antiviral 0.6.
For COc1cccc(C(=O)Nc2cc([N+](=O)[O-])ccc2N2CCN(C)CC2)c1 the results were H5N1 antiviral 1.2.
Screening Cc1cc(C)cc(OCC(=O)NC2=NCCS2)c1 returned H5N1 antiviral 2.0.
For S=c1[nH]nc(-c2cccnc2)n1Cc1ccccc1 the results were H5N1 antiviral 1.4.
For N#CCSc1nnc(Nc2ccccc2)s1 the results were H5N1 antiviral 0.9.
For O=C(Cc1ccccc1)Nc1ccc(CN2CCOCC2)cc1 the results were H5N1 antiviral 0.4.
Screening CCc1ccc(NC(=S)NC2CC3CCC(C2)N3Cc2ccco2)cc1 (stereo unspecified) returned H5N1 antiviral inactive.
Screening COCCn1c(-c2ccc(OC)cc2)nc2oc3cc(OC)ccc3c(=O)c2c1=O returned H5N1 antiviral 0.9.
CCOC(=O)c1c(C(=O)OCC)c(C)n(N2C(=O)CSC2=S)c1C was read as H5N1 antiviral 0.1.
`COc1ccc(CNC(=O)C2CCCN2S(=O)(=O)c2ccccc2)cc1` (stereo unspecified) gave H5N1 antiviral 0.2.
`CC(C)c1nnc(NC(=O)Cc2cccs2)s1` gave H5N1 antiviral 2.4.
For Cc1nn(CC(C)C)c(=S)[nH]c1=O the results were H5N1 antiviral 0.8.
Screening O=C(CNC(=O)Cc1ccccc1)NCC(=O)OCc1ccccc1 returned H5N1 antiviral inactive.
Screening COCCn1c(=O)[nH]c2cc(C(=O)NCCN3CCN(c4cccc(Cl)c4)CC3)ccc2c1=O returned H5N1 antiviral 0.4.
Screening CCOC(=O)C1=C(c2ccccc2)OC(N)=C(C#N)C1C1CCCCC1 (stereo unspecified) returned H5N1 antiviral inactive.
`CCc1ccc(NCc2cc3c(C)nn(-c4ccccc4)c3[nH]c2=O)cc1` gave H5N1 antiviral inactive.
Screening COCCCNC(=O)c1c(NC(=O)c2ccco2)n(Cc2ccccc2)c2nc3ccccc3nc12 returned H5N1 antiviral inactive.
For Cc1cccc(N2CCN(C(=O)CCn3c(=S)[nH]c4cc5c(cc4c3=O)OCO5)CC2C)c1 (stereo unspecified) the results were H5N1 antiviral inactive.
For Cn1nccc1C(=O)Nc1ccc(OC(=O)c2ccnn2C)cc1 the results were H5N1 antiviral 0.1.
Screening C=CCNc1ncnc2c1cnn2-c1ccc(Cl)cc1 returned H5N1 antiviral 1.2.
`CCOC(=O)C(NC(C)=O)C(OC(C)=O)c1cccc([N+](=O)[O-])c1` (stereo unspecified) gave H5N1 antiviral 2.4.
`Cc1cnc(C(=O)Nc2ccc(F)c(F)c2)cn1` gave H5N1 antiviral inactive.
CC1CC(C)(C)NC(C)c2ccccc21 (stereo unspecified) was read as H5N1 antiviral inactive.
For COC(=O)c1cccc(NC(=O)C2C3CCC(C3)C2C(=O)O)c1 (stereo unspecified) the results were H5N1 antiviral inactive.
Screening CN1CCC(O)(c2ccccc2)C2CCCC21 (stereo unspecified) returned H5N1 antiviral 0.2.
O=C(CCSc1ccccc1)Nc1ccc(S(=O)(=O)N2CCOCC2)cc1 was read as H5N1 antiviral inactive.
O=C1c2ccccc2C(=O)N1c1nc(-c2cccs2)cs1 was read as H5N1 antiviral inactive.
O=C(C1CCN(c2ccc(N3CCOCC3)nn2)CC1)N1CCc2ccccc2C1 was read as H5N1 antiviral inactive.
For O=C(CSc1nnc(CNC(=O)c2ccco2)o1)c1ccccc1 the results were H5N1 antiviral 0.6.
`CC(N)C12CC3CC(CC(O)(C3)C1)C2` (stereo unspecified) gave H5N1 antiviral inactive.
Screening COC(=O)c1ccc(C2/C(=C(/O)c3ccc(OC)cc3)C(=O)C(=O)N2c2cc(C)on2)cc1 (stereo unspecified) returned H5N1 antiviral 1.0.
`CC(C)CCN(C)C1CCN(C(=O)Nc2c(F)cccc2F)CC1` gave H5N1 antiviral 1.4.
`CC(=O)N1CCN(S(=O)(=O)c2ccc(C)cc2)C1C(C)C` (stereo unspecified) gave H5N1 antiviral inactive.

Entries above that have a COOH group (five):
CC1CCC/C(=C\Nc2ccccc2C(=O)O)C1=O (stereo unspecified) was read as H5N1 antiviral inactive.
For O=C(O)c1ccc(-c2ccccc2)[nH]1 the results were H5N1 antiviral 0.1.
`COc1ccc(OC)c(NC(=O)N[C@@H](Cc2ccccc2)C(=O)O)c1` gave H5N1 antiviral 0.5.
Cc1cc(NC(=O)CCCC(=O)OCC(F)(F)C(F)F)cc(C)c1C(=O)O was read as H5N1 antiviral inactive.
For COC(=O)c1cccc(NC(=O)C2C3CCC(C3)C2C(=O)O)c1 (stereo unspecified) the results were H5N1 antiviral inactive.
